Screening results from PubChem.
Vaccinia mCherry = vaccinia inhibition (mCherry reporter); Vaccinia virus mCherry reporter infection, fluorescence; about a quarter of the inactives have no number; Potency, µM (series often up to 36.5 µM), for inactives: at the top dose activity change, negative = inhibition, most hits filed as inhibitors; 0.63% of 310,000 active; active = well fitted inhibition curve with a large enough effect; inconclusive = small, poorly fitted or top-dose-only effect; inactive = no such curve, though single readings can be large or run the other way; tested in A549 cells; also: nearly all actives have a fitted effect of over 35% in size; inactives centre near -10
Vaccinia Venus = vaccinia inhibition (Venus reporter); Potency, µM (series often up to 36.5 µM), inactives show top-dose activity change, negative = inhibition, most hits filed as inhibitors; 0.46% of 330,000 active; Vaccinia virus Venus reporter expression, fluorescence; active means well fitted inhibition curve with a large enough effect; inconclusive means small, poorly fitted or top-dose-only effect; inactive means no such curve, though single readings can be large or run the other way; tested in A549 cells; also: nearly all actives have a fitted effect of over 30% in size; inactives centre near -10
An asterisk follows results filed as active; i = inactive; u = inconclusive; x = no result given; & = joins results of further samples. % is scaled to controls: 0 for no effect and ±100 for the full control effect; potency is read from the fitted curve at half-maximal effect.

Each structure is followed by: Vaccinia mCherry	Vaccinia Venus
Cc1ccc(CNC(=O)C(=O)NCC2OCCN2S(=O)(=O)c2ccc(Br)cc2)cc1 (stereo not given)
    -22.2%	u
O=C1CC[C@@H](CN(Cc2cccnc2)C2CCN(c3ccc(NC(=O)c4cnccn4)cc3)CC2)N1
    i	1.8%
Cc1cc(C(=O)CS(=O)(=O)c2ccccc2)cc(C)c1O
    -0.5%	2.8%
COc1ccc(CCNC(=O)COc2ccc(S(=O)(=O)N3CCOCC3)cc2C)cc1
    -12.1%	-12.1%
CC(=O)c1cccc(NC(=O)COC(=O)COc2ccccc2C)c1
    i	0.2%
Cn1c(N2CCCCC2)cc(=O)n(C)c1=O
    -11.5%	-4.8%
Nc1nnc(-c2cn(-c3ccccc3)nc2-c2ccccc2)o1
    -22.0%	-17.9%
CSc1nc(NC(C)(C)C)nc(N2CCOCC2)n1
    -25.9%	-7.8%
COCCCNc1ccn2nc(-c3cccc(Cl)c3)cc2n1
    i	-7.5%
Oc1ccc2ccccc2c1C1Nc2cccc3cccc(c23)N1
    u	u
CCc1cccc(-n2c(C)nc3c(cnn3-c3ccc(C)c(C)c3)c2=O)c1
    -8.6%	-7.1%
CC1=C(C(=O)OCC2CCCO2)C(c2ccc(C)o2)C2=C(CC(c3ccc(F)cc3)CC2=O)N1 (stereo not given)
    -29.9%	-18.3%
CCN(CC)c1ccc(-c2sc(Nc3ccccc3)n[n+]2-c2ccc(F)cc2)cc1
    i	u
O=C(COc1ccc2ccccc2c1)NCCn1ccc2ccccc21
    26.7%	-2.0%
COc1ccc(S(=O)(=O)N2CCN(C(=O)c3cc(C4CC4)nn3-c3ccccc3)CC2)cc1OC
    -12.5%	-10.4%
CC(C)CC(NC(=O)c1cccs1)c1nnc(SCc2ccc(Cl)c(Cl)c2)n1C (stereo not given)
    u	u
O=C(O)C[C@H]1c2cc(F)ccc2S(=O)(=O)N1Cc1ccccc1
    -6.7%	2.9%&-14.8%
CSCCC(NS(=O)(=O)c1ccc2c(c1)oc(=O)n2C)C(=O)Nc1ccc(F)c(Cl)c1 (stereo not given)
    -6.1%	-9.0%
COC(=O)c1c(C)nn(-c2ccccc2)c1N
    -6.9%	-12.7%
CCOC(=O)c1c(C)c(/C=N/Nc2ccccc2)n(C)c1C
    -8.0%	-0.7%
Cc1ccccc1N1C(=O)c2cc(S(N)(=O)=O)c(Cl)cc2NC1C (stereo not given)
    -5.9%&-12.0%	-13.0%&-2.0%
CC(=O)Nc1ccc(NC(=O)C(C)OC(=O)CSc2ccc(Br)cc2C)cc1 (stereo not given)
    -19.0%	-2.4%
CCOc1ccc(-c2cc(C(=O)Nc3ccc(NC(C)=O)cc3)no2)cc1
    -18.6%	-8.4%
Cc1ccc(-c2nc3nc(C)cc(N4CCN(c5cccc(C)c5)C(C)C4)n3n2)cc1 (stereo not given)
    -27.6%	26.9%
COc1ccc(C2Nc3ccccc3C(=O)N2C2CCCCC2)cc1 (stereo not given)
    -18.0%	-20.3%
Cc1ccc(S(C)(=O)=O)cc1S(=O)(=O)Nc1cccc(Cl)c1
    -2.6%	-10.1%
Cc1ccc2[nH]c(=O)c(CN(CC3COCCO3)C(=O)Nc3ccccc3F)cc2c1 (stereo not given)
    -18.1%	-13.5%
O=C(CN1C(=O)COc2ccccc21)N1CCCc2ccccc21
    -3.2%	2.6%
CN(CCC1CCOCC1)C(=O)CC1C(=O)NCCN1CC1CCCCC1 (stereo not given)
    -1.0%	-7.9%
CC(=O)Nc1ccc(NC(=O)C(C)OC(=O)CN(C)S(=O)(=O)c2ccc(Cl)cc2)cc1 (stereo not given)
    -11.8%	-10.0%
O=C(c1cc2ncc(Br)cn2n1)N1CCN(C(=O)c2ccco2)CC1
    x	-9.2%
CCCCCCCCn1c(=O)c(C(=O)OC)c(N)c2ccccc21
    u	u
O=C(NNC(=S)NC(=O)c1ccccc1[N+](=O)[O-])c1ccccc1O
    -19.7%	-19.1%
Cc1cccc(CCNS(=O)(=O)c2cc3c(cc2C)NC(=O)CO3)c1
    14.7%	-6.4%
Cc1cc(SCC(=O)c2cc(C)n(C)c2C)nc2ccccc12
    -12.5%	-4.1%
C/C(=N/NC(=O)CNC(=O)C1COc2ccccc2O1)c1cccc(O)c1 (stereo not given)
    -4.8%	-12.5%
Cc1ccc(NS(=O)(=O)c2ccc3c4c(cccc24)C(=O)N3)c(C)c1
    5.1%	-5.4%
Cc1ccc(CN2CCN(/N=C/c3ccco3)CC2)c(C)c1
    -10.5%	-7.6%
COC(=O)C1=C(C)N=C2SC(C)C(=O)N2C1c1cccs1 (stereo not given)
    -9.6%	-18.6%
Cc1c(Br)c([N+](=O)[O-])nn1CCCC(=O)Nc1sc2c(c1C#N)CCC2
    -10.8%	-18.5%
O=C(NCCc1c[nH]c2ccccc12)c1ccc(-n2cnnn2)cc1
    x	-17.0%
Fc1ccc(N2CCN(Cc3cccn3-c3nnc(N4CCN(C5CCCCC5)CC4)s3)CC2)cc1
    -17.2%	-18.8%
CCC(=O)N1c2ccccc2NC2=C(C(=O)CCC2)C1c1cccnc1 (stereo not given)
    -9.6%	7.3%
Cc1c(C(=O)N2CCOc3ccc(Cl)cc3C2)sc2ncnc(NCCc3ccccn3)c12
    i	-3.8%
COCCNC(=O)CCc1c(C)nc2nc(-c3cc(OC)cc(OC)c3)nn2c1C
    i	-9.1%
CN1CCC(N(C)c2nc(-c3ccccc3)nc3ccccc23)CC1
    -20.0%	-26.1%
COc1ccccc1NS(=O)(=O)c1ccc(Cl)c(NC(=S)NC(=O)C2CCCC2)c1
    u	u
O=C(CN(c1cccc([N+](=O)[O-])c1)S(=O)(=O)c1ccccc1)N1CCCCC1
    -21.5%	-8.2%
O=S(=O)(NCCc1ccccc1)c1ccccc1
    -11.5%	-18.3%
c1c(C2CCCCC2)n[nH]c1CN1CCCCC1
    -12.4%	-16.3%
COc1ccc(/C=N/Nc2nnc(Cc3ccc(OC)c(OC)c3)c(=O)[nH]2)cc1OC
    -8.0%	6.6%
Cc1ccc(CSCC(=O)NCc2ccc(F)cc2)cc1
    -7.4%&-5.1%	0.8%&-4.3%
COc1cc(C2NC(=O)C(C#N)=C(S)N2c2ccc(C)cc2)ccc1OC(C)C (stereo not given)
    -14.3%	-15.9%
CCCCOC(=O)Oc1ccc2c(=O)c(Oc3cc(C)cc(C)c3)coc2c1
    i	-14.7%
CN(C1CCCCC1)S(=O)(=O)c1ccc(NC(=O)c2ccc(Br)o2)cc1
    x	u
O=C(Nc1ccc(OCCO)cc1)c1csc([C@H]2C[C@H](O)[C@@H](CO)O2)n1
    i	0.1%
NC(=O)Cc1cn(-c2ncc(C(F)(F)F)cc2Cl)c2ccccc12
    -1.0%	-1.5%
CNC(=O)CSc1nnc(NC(=O)C2CC(=O)N(c3ccccc3OC)C2)s1 (stereo not given)
    i	-16.3%
CCN(CC)CC#CCC(O)(c1ccccc1)c1ccccc1
    -2.4%	-15.4%
CN1C[C@@H](CO)O[C@@H](n2cnc3c(N4CCOCC4)ncnc32)C1
    -3.5%	-0.4%

(continued)
Each structure is followed by: Vaccinia mCherry	Vaccinia Venus
Cc1ccc(S(=O)(=O)NC(=O)Cn2nnc(-c3ccccc3)c2COc2ccc3ccccc3c2)cc1
    -8.4%	-8.1%
O=C(NC1CCCC1)C1c2ccccc2OCC(=O)N1CC(F)(F)F (stereo not given)
    20.6%	5.6%
Nc1nc(NC(=O)c2ccco2)nn1-c1ccccc1
    -14.1%	-9.4%
C/C(=N\Nc1ccc2nncn2n1)c1ccco1
    -2.3%	-6.8%
Cc1ccc(Cl)cc1N1CCN(C(=O)CNC(=O)c2ccc(Br)o2)CC1
    -22.8%	-24.3%
CCCCCCN1C[C@@H](O)[C@H](n2cc(-c3ccc(F)cc3)nn2)C[C@@H]1c1ccccc1
    -1.7%	-17.7%
Cc1ccc(S(=O)(=O)N(C)c2ccc(OCC(=O)Nc3nnc(C4CC4)s3)cc2)cc1
    i	-9.5%
COc1cccc(CN(C)CC(=O)Nc2cc(S(=O)(=O)N3CCCC3)ccc2Cl)c1OC
    -28.3%	-20.5%
O=C(CSc1nccn1-c1ccc(Cl)cc1)N1CCCc2ccccc21
    -13.8%	0.3%
COC(=O)C1CCN(C(=O)CSc2nnc(-c3ccccc3)o2)CC1
    -20.7%	-13.2%
Cc1cc(Cl)ccc1OCC(=O)N(Cc1cccs1)C1CCS(=O)(=O)C1 (stereo not given)
    u	-11.7%
CN1CCN(c2ccc(NC(=O)c3cc(Cl)c4c(c3)OCCO4)cc2)CC1
    -9.9%	-3.4%
CC(C)OC(=O)c1ccc(NC(=O)c2cncc(Br)c2)cc1
    i	-10.1%
O=C(NCCc1ccccn1)c1cc(-c2ccc(Cl)c(Cl)c2Cl)nc2ccccc12
    u	u
N#Cc1c(N)nc(Sc2ccc(Cl)cc2)c(C#N)c1-c1ccccc1Cl
    u	-29.1%
CCCCCOC(=O)CSc1nnc(-c2ccccc2)c(=O)[nH]1
    i	-3.4%
CCN(CC(=O)c1c(N)n(C)c(=O)n(C)c1=O)c1cccc2ccccc12
    i	-9.1%
Fc1ccc(N2CCN(c3nc4ccccc4c4nc(-c5ccccc5)nn34)CC2)cc1
    -4.0%	-4.3%
Cc1c(NC(=O)COC(=O)c2cccc(F)c2)c(=O)n(-c2ccccc2)n1C
    i	-5.9%
CCn1c(C)nnc1SCC(=O)NC1CCCCCC1
    i	-3.9%

2 of the compounds above, comma-delimited.
molecule,Vaccinia mCherry,Vaccinia Venus
CCCCCOC(=O)CSc1nnc(-c2ccccc2)c(=O)[nH]1,i,-3.4%
CCN(CC(=O)c1c(N)n(C)c(=O)n(C)c1=O)c1cccc2ccccc12,i,-9.1%

Remaining list, next part:
Each structure is followed by: Vaccinia mCherry	Vaccinia Venus
CCOc1ccc(N(CC(=O)Nc2cccnc2)S(=O)(=O)c2ccc(C)cc2)cc1
    -0.6%	-6.8%
CCn1c2ccccc2c2cc(/C=C3/C=Cc4ccccc43)ccc21
    -7.6%	-21.3%
Cc1ccc(NC(=O)CNC(=O)CC23CC4CC(CC(C4)C2)C3)c(O)c1
    -25.0%	-13.5%
COc1ccc(C=C(C#N)C(=O)c2ccccc2)cc1
    -1.1%	-10.1%
O=C1CCC(/C=C/c2ccccc2)=NN1
    i	2.5%
CCOc1ccccc1Nc1cc(-c2ccccc2)nc(C)n1
    -4.7%	-5.0%
c1ccc(CCn2nnnc2CN2CCCc3ccccc32)cc1
    -25.6%	-19.1%
CCOc1ccc2[nH]c(=O)c(CN(Cc3nnnn3Cc3ccco3)C3CCCCC3)cc2c1
    x	-17.9%
CCOC(=O)COc1ccc(S(=O)(=O)N2CCN(C(=O)OCC)CC2)cc1
    i	-7.9%
Cc1ccc2c(c1)N(CC(=O)N1CCN(c3ccccc3)CC1)C(=O)C(C)O2 (stereo not given)
    -8.4%	-0.5%
CCOc1cc(S(=O)(=O)NCc2cccs2)ccc1Cl
    -23.5%	-17.8%
Cc1ccc(CNS(=O)(=O)c2c(C(=O)N3CCC(C)CC3)c(C)n(C)c2C)cc1
    -13.4%	-13.6%
CCc1nc2c(OCc3ccc(OC(F)F)cc3)cccn2c1N(C)C(=O)c1cccs1
    u	-19.6%
N#CC1=C(N)N(c2ccc(Cl)cc2)C2=C(C(=O)CCC2)C1c1cc(CN2CCOCC2)cs1 (stereo not given)
    -3.2%	-7.8%
COc1cc(C(=O)OCC(=O)NCC2CCCCC2)ccc1OCC(C)C
    -14.0%	-2.9%
O=C1CCc2cc(S(=O)(=O)Nc3cccc(F)c3)cc3c2N1CC3
    -12.0%	0.3%
CC(=O)c1cccc(NC(=O)c2ccc(C)c(S(=O)(=O)N3CCOCC3)c2)c1
    3.6%	-6.9%
O=[N+]([O-])c1cccc(-c2ccc(/C=N/NC(=S)Nc3ccccc3)o2)c1
    x	-16.6%
COc1cc([N+](=O)[O-])c(C)cc1NC(=O)c1ccc(OC)c(OC)c1
    i	-25.0%
CC(=O)N1CCSc2ccc(S(=O)(=O)NCCc3cccc(C)c3)cc21
    i	-23.5%
COc1ccc(/C=N/Nc2nc(C)cc(-c3ccccc3)n2)cc1OC
    -12.7%	-14.9%
COc1ccc(-c2nn(C)c(=O)c3ccccc23)cc1NC(=O)Cn1nc(C)c2ccccc2c1=O
    u	u
O=S(=O)(Cc1cc(Cl)nc(-c2cccnc2)n1)c1ccccc1
    -21.0%	-1.5%
Cc1ccccc1-c1nc(NC2CCNCC2)c2ccccc2n1
    6.7%	12.2%
CS(=O)(=O)CCC(C(=O)Nc1cccc(C(F)(F)F)c1)N1Cc2ccccc2C1=O (stereo not given)
    -0.8%	-4.9%
CC(C)CN(CCOc1cccc(N2C(=O)C3=C(CCCC3)C2=O)c1)CC(C)C
    -10.5%	1.4%
COc1ccc(CCC(=O)NCc2nc3cccnc3n2Cc2ccc(C)cc2)cc1
    -8.9%	-13.4%
CCOC(=O)c1ccc(Nc2cc(C)nc(N3CCOCC3)n2)cc1
    10µM*	12.6µM*
CCCCC(=O)NC(=S)NNS(=O)(=O)c1ccccc1
    -6.5%	-0.7%
CCc1nc2ccc(C(=O)NCCCn3ccnc3)cn2c1N(C)Cc1cccs1
    22.7%	-1.5%
O=C(NCCc1ccc(F)cc1)c1cccc2c1C(=O)c1ccc(N3CCC(Cc4ccccc4)CC3)cc1S2(=O)=O
    -27.2%	-6.1%
CCOc1ccc(C(=O)CCC(=O)NC(C)C(=O)OC)cc1 (stereo not given)
    i	-10.5%
Cc1cnc[nH]1
    i	-11.0%
